# High-throughput results: PubChem BioAssay, National Center for Advancing Translational Sciences (NCATS)
# gsp ag: gsp mutant agonism | Potency, µM (highest dose often 76.9 µM), without a hit: at the highest dose activation (cAMP increase), usual class: activators | AID 624287 | 0.13% of 340,000 active | gsp mutant cells, cAMP HTRF, 30 min; control for the full effect not named in the record; active = well fitted activation curve with a large enough effect; inconclusive = small, poorly fitted or top-dose-only effect, or another doubt; inactive = no such curve, though single readings can be large or run the other way; cell line not stated here;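 note: phosphodiesterase inhibitor Ro 20-1724 added with compounds to block cAMP breakdown; potency is the fitted concentration of half-maximal effect; nearly all actives have a fitted effect of over 60% in size; about a fifth of the inactives were tested at one dose only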
#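 Cells in DMEM/10% FBS with G418 were pretreated with compounds in DMSO plus […] (300 uM stock) for 30 min at 37C. cAMP was measured by HTRF (cAMP-d2 plus anti-cAMP antibody-K) after 30 min at room temperature.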
# PINK1 modulator: PINK1 expression modulation. AID 624263. 0.2% of 410,000 active. PINK1 immunofluorescence, high-content cytometry, 24 h. Potency, µM (top dose mostly 76.6 µM), inactives show top-dose activation (PINK1 increase), most hits filed as activators; active = well fitted activation curve with a large enough effect; inconclusive = small, poorly fitted or top-dose-only effect; inactive = flat fitted curve, though single readings scatter; cell line not stated here;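 note: potency is the fitted concentration of half-maximal effect; % of control where 0% means no effect; nearly all actives have a fitted effect of over 65% in size; a mitochondrial uncoupler was the plate control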
#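 Decision-based qHTS: stable cells, 24 h exposure to five compound concentrations, CCCP as control. Fixed cells stained for PINK1 plus nuclear, mitochondrial and cell markers, cytometer read.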
# Menin MLL FP FL: menin-MLL binding inhibition, fluorescein peptide | FP activity change, % at 61.4 µM | 290,000 tested, under 10 active | Fluorescence polarization, fluorescein-MLL peptide displacement from menin; inconclusive = falling polarisation curve, or a change in total fluorescence; inactive = total fluorescence flat and polarisation flat or rising; no compound was filed as active; the % refers to the polarisation; negative = inhibition;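 note: % of control where 0% means no effect; inhibitors lower the polarisation; unlabelled MLL peptide was the positive control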
# ClpP mod: qHTS Assay for Activators of ClpP. 1.9% of 340,000 active. Potency, µM (top dose mostly 57.5 µM), for inactives: at the top dose activity change, negative = active. ATP-dependent Clp protease proteolytic subunit (Bacillus subtilis (strain 168)), P80244. purified B. subtilis ClpP, FRET peptide cleavage, 20 min; active = well fitted falling curve with a large enough effect; inconclusive = small, poorly fitted or top-dose-only effect; inactive = no such curve, though single readings can be large or run the other way; note: potency is the fitted concentration of half-maximal effect; the source files actives as falling curves though it sought activators and does not explain the sign; nearly all actives have a fitted effect of over 65% in size; many hits overshoot -100%
# Target sequence (P80244 whole entry, looked up): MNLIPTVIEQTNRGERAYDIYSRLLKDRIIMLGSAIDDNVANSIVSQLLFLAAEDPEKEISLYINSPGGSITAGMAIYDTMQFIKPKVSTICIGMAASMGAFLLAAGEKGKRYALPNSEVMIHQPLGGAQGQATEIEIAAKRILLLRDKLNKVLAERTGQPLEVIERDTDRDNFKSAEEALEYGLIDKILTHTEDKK
#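 Buffer: 100 mM Tris/HCl pH8, 100 mM KCl, 0.05% low protease BSA, 2.5% glycerol, 0.01% Tween-20. ClpP 10 microg/mL final; 20 min RT; delta FRET normalized to ADEP and DMSO controls.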
# gsp antag: antagonizes gsp, the McCune-Albright syndrome mutation; Potency, µM (top dose mostly 76.9 µM), for the others: at the top dose activity change, negative = inhibition, most hits filed as inhibitors; AID 624288; 0.4% of 340,000 active; gsp-mutant cells, cAMP HTRF, 30 min; control for the full effect not named in the record; active = falling curve of any shape with a large fitted effect; inconclusive = falling curve, mostly with a smaller effect; inactive = flat or rising curve; cell line not stated here;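 note: intracellular cAMP measured with PDE inhibitor Ro 20-1724 present during compound exposure; potency is the fitted concentration of half-maximal effect; % is set by controls: 0 for no effect and ±100 for the full control effect; nearly all actives have a fitted effect of over 65% in size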
#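 HTRF cAMP read-out (cAMP-d2 plus anti-cAMP antibody-K in lysis buffer, 30 min RT). Before lysis, cells are exposed to compounds with […] for 30 min at 37C in DPBS containing Ca/Mg, BSA and Tween 20.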
# D2 ag: activates the human D2 dopamine receptor. DiscoveRx PathHunter D2 beta-arrestin, luminescence, 90 min; 100% = 57 uM dopamine signal. 0.084% of 360,000 active. P14416. activation, % (concentration not given with the values); in the data active = activation above about 40%; inconclusive = about 15% to 40%; inactive = below about 15%; note: compound concentration not given in the record; the text of the record calls up to 30% inactive
# Target sequence (P14416 whole entry, looked up): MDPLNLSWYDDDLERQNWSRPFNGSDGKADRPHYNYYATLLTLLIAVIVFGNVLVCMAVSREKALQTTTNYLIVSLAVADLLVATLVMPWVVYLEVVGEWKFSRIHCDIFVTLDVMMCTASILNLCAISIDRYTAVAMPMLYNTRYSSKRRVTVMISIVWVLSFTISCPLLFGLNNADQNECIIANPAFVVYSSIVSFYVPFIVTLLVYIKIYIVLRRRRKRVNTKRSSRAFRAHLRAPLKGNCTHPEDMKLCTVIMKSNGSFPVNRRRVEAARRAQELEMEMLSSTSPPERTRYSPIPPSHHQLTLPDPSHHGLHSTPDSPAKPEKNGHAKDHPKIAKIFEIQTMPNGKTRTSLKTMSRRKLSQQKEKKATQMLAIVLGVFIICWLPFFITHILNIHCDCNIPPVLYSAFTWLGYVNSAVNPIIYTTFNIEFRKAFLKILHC
#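 Agonist mode: compounds alone added to overnight-plated D2 PathHunter cells for 90 min at 37 C, with 57 uM final dopamine (EC100) defining full response. Beta-arrestin recruitment detected by chemiluminescent reagent, read after 1 h at ambient temperature.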
# Sfp inh: Sfp phosphopantetheinyl transferase inhibition; Biochemical Sfp PPTase activity, qHTS; Potency, µM, for inactives: max response, negative = inhibition, most hits filed as inhibitors; 3.5% of 310,000 active; active = well fitted inhibition curve with a large enough effect; inconclusive = small, poorly fitted or top-dose-only effect, or another doubt; inactive = no such curve, though single readings can be large or run the other way;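 note: the enzyme is Sfp with the accession as filed and its product quenches rhodamine fluorescence; potency is the fitted concentration of half-maximal effect; 0% = enzyme reaction without inhibitor and -100% = no enzyme wells; top concentration of the series not given in the record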
#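 Fluorescence-quenching assay with 15 nM Sfp, 5 uM rhodamine-CoA and 12.5 uM BHQ-2-labelled ybbR peptide in pH 7.6 Hepes/MgCl2 buffer. Enzyme was pre-incubated with compound for 15 min at room temperature. Rate was taken from the 30-min fluorescence change (525/598 nm).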
# An asterisk follows results filed as active; ? = inconclusive; . = no result given; & = joins results of further samples; [ ] = another dose, or the depositor's remark. Rows are unselected, and some 5.1% of all compounds hit somewhere here.
SMILES,gsp ag,PINK1 modulator,Menin MLL FP FL,ClpP mod,gsp antag,D2 ag,Sfp inh
O=S(=O)(NCCc1ccccc1)c1cnc(Cl)c(Br)c1,-8.5%,-0.5%,-0.7,-0.2%,1.6%,-4.7,13.5%
O=S(=O)(c1ccc(SCCOc2ccc(Cl)cc2)nc1)N1CCCC1,-22.5%,0.3%,.,0.1%,7.1%,-1.7,.
O=S(=O)(c1ccc(Cl)cc1)N1CCN(CCc2ccncc2)CC1,-0.9%,-0.1%,-0.2,.,6.9%,-3.5,1.8%
COc1ccc(/C=C/CN2CCN(CC(C)C)C(CCO)C2)cc1 (centres undefined),-13.9%[15.4 µM],0.2%,1.4,.,8.6%,-1.0,11.9%
Brc1ccccc1OCCCCN1CCCCC1,6.4%,0.2%,3.3,0.0%,11.7%,-4.7,1.0%
Cc1cc(C(=O)NNC(=S)NCC2CCCO2)cs1 (centres undefined),1.2%,4.6%[38.3 µM],0.7,0.2%,-0.8%,1.4,4.9%
O=C(CN1CCc2ccccc2C1)Nc1ccc(OC(F)(F)F)cc1,-13.8%[15.4 µM],6.3%,-6.0,107.9%,5.0%,-1.0,16.0%
CCCC(C)c1nnc(NC(=O)C2CCCO2)s1 (centres undefined),-22.4%,-3.6%[38.3 µM],6.9,-2.2%,2.3%,1.8,12.6µM*
CCOc1ccc(NC(=O)COC(=O)c2ccc3ncsc3c2)cc1OCC,-4.0%,2.0%,.,-0.7%,-0.9%,-0.4,.
C=C[C@](C)(O)CCC1C(=C)CC(OC(C)=O)C2C(C)(C)CCCC12C (some centres undefined),.,10.9%,-5.2,.,.,.,2.1%
Cc1ccc(S(=O)(=O)c2c(N)n(C)c3nc4ccccc4nc23)cc1,-0.6%,5.0%,-0.6,?,-19.9%,3.4,?
O=C(Nc1cccc2nsnc12)c1cccnc1Cl,18.4%,2.7%,8.1,?,-3.7%,1.1,21.8%
CCc1ccc(C(C)NC(=O)Cc2ccc(F)cc2)cc1 (centres undefined),-22.1%,3.7%,1.1,.,-2.7%,-3.8,11.0%
CCOC(=O)c1c(NC(=O)Cc2ccccc2)sc2c1CC(C)(C)NC2(C)C,-6.4%,3.6%,-0.4,-3.9%,-1.6%,-3.9,-4.3%
COc1cccc(C2C(C#N)=C(N)OC(C(C)(C)C)=C2C#N)c1 (centres undefined),-0.4%,-1.9%,4.1,-3.0%,-11.7%,-2.4,4.6%
Cc1ccc(NC(=O)CN(c2ccc(Cl)cc2)S(=O)(=O)c2cc([N+](=O)[O-])ccc2Cl)cc1,?,1.7%,8.6,-1.9%,0.3%,7.4,33.4%
Cc1ccc(-n2c(=O)cc(N3CC(C)OC(C)C3)[nH]c2=O)cc1 (centres undefined),-44.3%[inhibitor],1.1%,-0.1,1.2%,10.1%,-3.2,?
CC1CN(C2CCN(C(=O)COc3ccccc3)CC2)CC(C)O1 (centres undefined),-0.5%,-0.1%,-9.9,-0.2%,6.8%,-3.2,-12.1%
CC1CC(=O)c2c(cc3c(-c4c(O)cc(O)c5c(O)c6c(cc45)OC(C)CC6=O)c(O)cc(O)c3c2O)O1 (centres undefined),.,2.0%,4.4,1.1%,?,-10.9,29.7%
CC(C)(C)NC(=O)COC(=O)CCC(=O)c1cccs1,-22.0%[15.4 µM],1.1%,-5.4,.,5.2%,-5.1,21.9%
Cc1c(C(=O)NNC(=O)c2ccncc2)oc2ccc(Br)cc12,-3.1%,0.7%,.,-3.7%,1.4%,-1.0,.
CC(C)C(NC(=O)c1ccc2c(c1)OCO2)C(=O)N/N=C\c1ccco1 (centres undefined),8.1%,-3.0%[38.3 µM],0.3,-0.1%,3.7%,1.0,8.5%
CCCCC(=O)Nc1ccc(NC(=S)NC(=O)CC)cc1OC,-34.3%[inhibitor],-0.5%,3.4,-2.3%,-16.4%,0.4,5.3%
CC(=O)c1ccc(NC(=O)c2sc3nc4n(c(=O)c3c2C)CCCCC4)cc1,-20.4%,-0.8%,.,-1.2%,-19.1%,?,-4.5%
O=C(c1ccc(Cl)cc1)C(Cn1cncn1)C(Sc1ccccc1)c1ccccc1 (centres undefined),?,0.1%,0.6,1.1%,-9.8%,-5.0,-12.0%
CCN(CC)S(=O)(=O)c1cccc(-c2nnc(SCC(=O)NC3CCCCCCC3)n2N)c1,-71.0%[inhibitor],-10.1%[38.3 µM],0.9,-0.8%,-17.3%,-3.1,2.1%
O=C(c1c[nH]c2ccc(S(=O)(=O)N3CCOCC3)cc2c1=O)N1CCN(c2ccccn2)CC1,8.5%,-0.2%,2.9,-4.3%,-0.4%,-1.2,12.8%
Cc1ccc(SCC(=O)O/N=C(\N)c2cccc([N+](=O)[O-])c2)cc1,-9.4%,-0.8%,0.4,-3.8%,-6.2%,1.4,-3.8%
COCCNC(=O)C(c1ccc(F)cc1)N(CCOC)C(=O)CCC(=O)Nc1ccccn1 (centres undefined),-21.1%,-1.5%,-0.4,.,7.0%,8.5,15.1%
Cc1ccc(NC(=O)NC(=O)N(C(C)C)S(C)(=O)=O)nc1,14.9%,-0.3%,1.0,35.5µM*,2.8%,2.8,-21.8%
CCCCCn1c(CN2CCN(Cc3ccccc3)CC2)nc2c1c(=O)n(C)c(=O)n2C,8.0%,7.2%,5.0,-1.4%,7.3%,-4.5,1.6%
COc1ccc(N2CCN(CCNC(=O)CCC(=O)NNc3nc4ccccc4c4nc(C)nn34)CC2)cc1,-34.9%[inhibitor],0.4%,.,-2.2%,6.8%,0.9,5.6%
COC(=O)Cc1ccc(NC(=S)NNC(=O)C2CC2)cc1,-16.7%[15.4 µM],-1.8%,0.1,.,5.9%,-6.1,28.7%
CCc1ccc(NC(=O)CC2C(=O)NCCN2C(=O)c2ccc(F)cc2)cc1 (centres undefined),4.9%[15.4 µM],-0.6%&0.3%,.,-1.8%&1.3%,11.5%,-4.6,10.2%
O=C1CCN(Cc2ccc(O)cc2)CCN1[C@H](CO)c1ccccc1,2.4%,-0.8%,2.4,-2.0%&-25.5%,8.2%,-1.3,11.1%
CCCn1c(C(C)NC(C)=O)nc2ccccc21 (centres undefined),-34.7%,1.0%,6.4,1.1%,9.5%,-1.4,7.7%
CC(Oc1ccc(Br)cc1)C(=O)N1CCN(c2ccccn2)CC1 (centres undefined),-18.8%,0.2%,.,?,4.1%,-0.7,16.3%
O=C(NCCc1csc(-c2ccccc2)n1)c1ccc(Br)o1,-45.5%[inhibitor],-0.1%,3.2,-2.1%,-22.6%,-0.8,11.9%
CCN(C(=O)c1cc2c(s1)-c1ccccc1OC2)c1cc(OC)ccc1OC,-34.7%[inhibitor],8.5%,-3.7,-26.5%,-26.5%,-0.8,-10.6%
Cc1ccccc1-c1nc(CS(=O)(=O)CC(=O)NCCCN2CCN(C)CC2)c(C)o1,12.6%,0.5%&-0.6%,2.2,-4.0%&-5.0%,12.8%,-3.9,5.2%
COc1ccc(NS(=O)(=O)c2cc3c(cc2C)N(C(C)=O)CCO3)cc1OC,?,0.2%,2.6,1.6%,5.6%,-2.1,-1.6%
C[C@H](NC(=O)c1[nH]cnc1C(=O)Nc1ccccc1)C(=O)OC(C)(C)C,-24.0%,2.6%,0.5,-3.8%,1.9%,-5.2,-2.2%
C/C(=N\NC(=O)c1ccco1)c1ccc(NC(=O)c2ccccc2)cc1,12.6%[15.4 µM],-0.2%,?,.,1.2%,-4.3,-16.5%
O=C(O)C1C2CCC(C2)C1C(=O)Nc1ccc(Cl)c(Cl)c1 (centres undefined),-7.4%[15.4 µM],3.3%,.,0.7%,-13.7%,-4.6,.
C/C(=N\OCc1ccc(C#N)cc1)c1cc2ccccc2o1,?,4.3%,4.0,.,?,2.4,-3.1%
COc1ccccc1C(=O)NC(=O)COc1ccc(Cl)cc1Cl,-6.0%[15.4 µM],9.4%,.,.,-6.9%,-2.0,.
COc1ccccc1NC(=O)CCN1CCN(C)CC1,16.8%,0.1%,-1.2,1.8%,10.4%,7.2,8.0%
CC1CCc2nc(NC(=O)C3CCCO3)sc2C1 (centres undefined),12.8%,11.0%[38.3 µM],0.8,1.3%,7.8%,-1.6,-29.1%
C=CCn1c(C)cc(C(=O)COc2ccc(N(C)S(=O)(=O)c3ccc(NC(C)=O)cc3)cc2)c1C,20.1%,0.7%,.,0.6%,?,3.5,.
c1ccc(NCc2ccccn2)cc1,?,-0.2%,-0.9,0.6%,4.2%,-1.7,4.0%
COc1ccc2c(c1)CC/C(=C\C=C\c1ccccc1OC)C2=O,-15.4%,0.3%,2.6,-11.1%,?,4.2,25.1µM*
COc1cc(OC)cc(C(=O)N[C@H](C(=O)Nc2cc(C)cc(C)c2)C(C)C)c1,15.9%[15.4 µM],6.1%,1.9,.,12.0%,-4.2,22.6%
CCSc1nnc(-c2cc(Br)ccc2N)c(=O)[nH]1,9.1%,-1.1%,2.2,.,5.9%,-0.6,5.7%
CCCN(CCC)CCNS(=O)(=O)c1ccc2c(c1)CCN2C(=O)C1CCC1,1.9%,-0.4%[38.3 µM],3.2,1.3%,-0.2%,1.4,10.8%
COc1cc(C(=O)Nc2ccc3nc4n(c(=O)c3c2)CCCC4)ccc1Br,-6.1%,1.9%,2.8,2.9%,16.9%,-3.5,18.7%
CSc1nc2nc3c(cc2c(=O)n1-c1ccccc1C)COC(C)(C)C3,-1.0%,0.6%,0.2,-13.1%,-3.4%,-0.3,19.6%
COc1ccccc1C(=O)NNC(=O)C12CC3CC(CC(C3)C1)C2,-0.5%,0.5%,-8.1,.,2.2%,-1.9,17.4%

# Looked up by structure from the entries so far, two records:
SMILES,gsp ag,PINK1 modulator,Menin MLL FP FL,ClpP mod,gsp antag,D2 ag,Sfp inh
CSc1nc2nc3c(cc2c(=O)n1-c1ccccc1C)COC(C)(C)C3,-1.0%,0.6%,0.2,-13.1%,-3.4%,-0.3,19.6%
COc1ccc(NS(=O)(=O)c2cc3c(cc2C)N(C(C)=O)CCO3)cc1OC,?,0.2%,2.6,1.6%,5.6%,-2.1,-1.6%
